Compound activity (PubChem BioAssay)
GIV-Gai inh: blocks GIV peptide binding to rat Galpha-i3; P08753; Galpha-i3/FITC-GIV peptide fluorescence polarization, 90 min; stronger effect = lower value; scaled: aluminum fluoride 0%, vehicle 100%; percent of control (FP), % (concentration not given with the values); 210,000 compounds, 0.42% hits; AID 1224905;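 active = replicate mean at 85% of control or lower, very high polarization wells dropped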;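 also: wells of about 15 µL received 100 nL stock; the first replicate is given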
Target sequence (P08753 whole entry, looked up): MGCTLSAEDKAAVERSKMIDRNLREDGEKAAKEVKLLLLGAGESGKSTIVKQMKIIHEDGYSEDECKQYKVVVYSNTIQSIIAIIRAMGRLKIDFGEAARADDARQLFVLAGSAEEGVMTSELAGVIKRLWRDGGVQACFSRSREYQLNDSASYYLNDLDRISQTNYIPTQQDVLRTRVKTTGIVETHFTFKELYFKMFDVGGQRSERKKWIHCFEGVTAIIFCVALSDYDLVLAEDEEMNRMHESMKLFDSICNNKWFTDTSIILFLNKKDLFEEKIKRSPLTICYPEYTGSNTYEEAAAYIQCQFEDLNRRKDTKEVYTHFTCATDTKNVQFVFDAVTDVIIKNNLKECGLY
HCMV NEC inh: disrupts HCMV UL50-UL53 complex binding. 190,000 compounds, 0.15% hits. HTRF UL50-UL53 interaction, normalized percent inhibition. inhibition, % (concentration not given with the values);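 active = both replicates at 50% or more, plus weaker picks with an unusually low signal ratio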;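 also: stock transfer was 100 nL into about 20 µL; 0% = negative control wells and 100% = wells with untagged competitor protein; inactives centre near -12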
Sa growth 42C: inhibitors of Staphylococcus aureus growth at 42 °C; S. aureus RN4220 growth, OD600, 20 h; stronger effect = lower value; relative growth, % (no concentration beside the values); 170,000 compounds, 0.53% hits;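 active = growth at 42 °C up to 50% and 20 or more points under that at 30 °C, or under 10% at both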;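 also: 300 nL library stock went into each well; scaled to the means of positive and negative controls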
Sa growth 42C second temp: second read-out of Sa growth 42C, no call of its own (marks repeat the call); relative growth, %; measured here: growth at 30 °C;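 optical density after 20 h as mean of two plates; 100% = untreated growth and lower means inhibition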
Active calls of the source: *; x = no result given.

SMILES	GIV-Gai inh	HCMV NEC inh	Sa growth 42C	Sa growth 42C second temp
Cc1ccccc1OCC(=O)Nc1cc(Sc2ccccn2)cc(S(=O)(=O)c2ccccc2)c1	x	-14.4	102.8	88.5
COc1ccc(O)c(/C=N/N=C/c2cc(OC)ccc2O)c1	x	-36.1	96.0	99.3
CCSc1nc2c(c(=O)[nH]c(=O)n2C)n1CC	98.9	1.7	122.8	96.3
Cc1ccc(-c2nc(C#N)c(NCCCN3CCOCC3)o2)cc1	100.1	-5.1	90.7	89.4
Nc1cc(=O)nc(SCCC(=O)O)n1-c1ccccc1	105.9	-29.0	84.5	87.7
CCCN1C(=O)c2ccccc2NC1c1ccc(OC)c(OC)c1 (stereo not given)	100.4	x	109.6	82.2
Cc1nnc2ccc(-c3ccc(NC(=O)c4ccc5c(c4)OCO5)cc3)nn12	109.7	-25.3	109.1	94.1
COc1ccc(CCNC(=O)c2cc(S(=O)(=O)N3CCCC(C)C3)cn2C)cc1OC (stereo not given)	94.9	x	97.5	84.0
COc1ccccc1N1CCN(S(=O)(=O)c2cccc3nsnc23)CC1	106.8	-81.2	118.2	88.0
Nc1ccc(C(=O)O)cc1	x	-11.2	85.6	89.2
O=C(c1ccc(F)cc1)c1ccc(N2CCCC2)cc1	98.4	-24.6	89.2	81.6
COc1ccc(CN2C(=O)C3C4C=CC(C4)C3C2=O)cc1 (stereo not given)	100.0	x	95.2	86.6
N#Cc1cc2c(nc1SCC(=O)O)CCC2	x	-12.1	109.8	89.5
Cn1cc(S(=O)(=O)N2CCCCC2)cc1C(=O)Nc1ccc(OC(F)(F)F)cc1	96.9	x	105.0	100.0
Cc1cn(C(=O)Nc2ccccc2)nc1-c1cccs1	106.6	-24.8	96.2	72.3
O=C1COc2ccc(NC(=O)c3cccc(Cl)c3)cc2N1	106.0	-19.9	x	x
CC1CN(C(=O)COC(=O)c2c(F)cccc2F)CC(C)O1 (stereo not given)	x	-26.8	74.3	82.4
O=C1CC(c2ccccc2)CC(O)=C1C=NCc1ccncc1 (stereo not given)	108.7	x	102.1	90.8
COc1ccc(-c2c3c(nc4sc(C(=O)Nc5ccccc5F)c(N)c24)CC(C)(C)CC3=O)cc1	108.2	-7.6	104.4	100.5
O=C1CC(c2c(F)cccc2Cl)C2=C(CCCC2=O)N1 (stereo not given)	98.1	-25.6	x	x
C1CCc2nnc(C3CC3)n2CC1	x	-1.9	90.8	98.9
Cn1c(=O)n(C)c2cc(N3CCCC3)c(NC(=O)Nc3ccc4c(c3)OCO4)cc21	98.4	-7.7	x	x
CC(C)(C)SCC(=O)Nc1nc(-c2cccs2)c(-c2cccs2)s1	x	-7.9	70.9	94.7
O=C(NCC1CCCO1)c1c[nH]c2ccc(S(=O)(=O)Nc3cccc(C(F)(F)F)c3)cc2c1=O (stereo not given)	104.1	x	94.8	92.9
O=C(C1Cc2ccccc2C1)N1CCOCC1	100.9	0.8	100.4	95.4
c1ccc(CCNc2nc3ccccc3c3nc(-c4ccccc4)nn23)cc1	96.0	-10.9	x	x
CC(C)NC(=O)CN1C(=O)c2ccccc2S1(=O)=O	103.4	-5.4	92.7	85.0
O=C(NCCN1CCOCC1)C(=O)NCC(c1cccnc1)N1CCc2ccccc2C1 (stereo not given)	107.6	-18.2	x	x
c1ccc(C(Sc2ccccn2)c2ccccc2)cc1	x	-1.8	132.4	92.9
CNC(=O)NC(=O)CN1CC(=O)Nc2ccccc21	x	-31.5	70.7	89.9
COc1ccc2[nH]c(=O)c(CN(Cc3ccco3)C(=S)NC3CCCCC3)cc2c1	100.4	-9.7	84.7	97.0
COCCn1c(SCC(=O)Nc2cccc(C)c2C)nc2c(oc3ccccc32)c1=O	105.5	3.6	91.0	86.3
Cc1ccc(CNC(=O)C2CC(=O)OC23CCCC3)c(C)c1 (stereo not given)	97.1	-16.6	89.0	87.5
COc1cc2c(cc1OC)C(CC(=O)Nc1ccccc1)C(=O)N(C(C)=O)N=C2C (stereo not given)	x	4.4	93.7	89.1
Cc1ccc2[nH]cc(CCNC(=O)CCCn3c4ccccc4c4cnn(C)c(=O)c43)c2c1	107.8	-5.7	x	x
CCN(CC(=O)NC1CCS(=O)(=O)C1)C(=O)C1c2ccccc2Oc2ccccc21 (stereo not given)	x	-20.2	68.5	82.4

Already shown: 2 of the compounds above.
SMILES	GIV-Gai inh	HCMV NEC inh	Sa growth 42C	Sa growth 42C second temp
c1ccc(C(Sc2ccccn2)c2ccccc2)cc1	x	-1.8	132.4	92.9
CNC(=O)NC(=O)CN1CC(=O)Nc2ccccc21	x	-31.5	70.7	89.9

(list continues)
SMILES	GIV-Gai inh	HCMV NEC inh	Sa growth 42C	Sa growth 42C second temp
Cc1nc(C)c(-c2ccc(SCC(=O)Nc3ccc(Cl)c(Cl)c3)nn2)s1	100.3	x	123.3	80.9
CN(CCOc1ccccc1)C(=O)c1ccc2c(c1)OCO2	x	-5.5	98.9	95.6
COC(=O)CC1=CC(SCc2ccc(OC)c(F)c2)=Nc2ccccc2N1	105.2	2.4	x	x
CCOC(=O)Cn1nc(C)c(NC(=O)COc2ccccc2)c1C	104.3	x	119.4	85.9
Cc1ccc2[nH]c3c(N(C)C)ncnc3c2c1	99.5	x	95.7	64.3
CC(C)(C)OC(=O)N/N=C\c1cc2c(cc1Br)OCO2	101.5	9.4	100.1	101.3
Cc1nn(C)c2nc(OC(C)C(=O)Nc3ccc(Cl)cc3)cc(C(F)(F)F)c12 (stereo not given)	103.7	-32.0	x	x
CN(C)C(=S)Nc1cc(C(F)(F)F)cc(C(F)(F)F)c1	104.6	3.2	102.9	94.9
CCc1ccccc1N1CCN(C(=O)c2ccc(Cl)cc2)CC1	107.8	-10.6	91.0	84.6
OC(CN1CCCCC1)Cn1ccc2ccccc21 (stereo not given)	102.5	x	92.1	88.5
CSC1=NCC(=O)N1Cc1cccc(Cl)c1	109.5	9.7	98.7	96.8
CCOc1ccc(CCNC(=O)C2CCCN(S(=O)(=O)N3CCCCC3)C2)cc1OCC (stereo not given)	107.9	-35.2	95.4	93.7
CCC(C)(C(=O)NC1CCCC1)N(C(C)=O)c1ccc(C)cc1 (stereo not given)	104.8	x	96.1	83.2
COc1ccc2oc(=O)c(C(=O)NCCCn3ccnc3)cc2c1	104.3	-158.4	91.4	77.4
COc1cccc(C2=NN(C(=O)c3cccc(Br)c3)C(O)(C(F)(F)F)C2)c1 (stereo not given)	103.9	-3.2	x	x
CCc1ccc(S(=O)(=O)c2nnn3c2nc(NC2CCCCCC2)c2sccc23)cc1	103.3	x	104.2	85.2
CCNC(=O)Cc1ccc(NC(=O)N2CCCCc3ccccc32)cc1	103.4	x	120.8	88.3
CC(=O)Nc1ccc(S(=O)(=O)N[C@@H](C)C(=O)NC2CCCc3ccccc32)cc1 (stereo not given in full)	x	5.6	96.6	96.1
CC(C)n1nccc1NC(=O)c1cc2c(s1)CCCCC2	x	-31.0	93.0	82.3
O=C(Nc1cccc(Cl)c1)NC(c1ccccc1)c1nnc(-c2ccccc2)o1 (stereo not given)	93.0	-4.6	x	x
CC(C)(C)S(=O)(=O)Cc1nc(-c2ccc(C#N)cc2)cs1	103.3	2.6	108.0	72.3
O=C(CCCc1ccccc1)N1CCN(c2ccccn2)CC1	101.6	12.1	104.7	95.5
O=C(Nc1c(C(=O)Nc2cccc(C(F)(F)F)c2)oc2ccccc12)c1cc(=O)c2ccccc2o1	103.4	-28.1	99.0	84.6
Cc1ccc(NC(=O)N2CCC(O)C2)cc1 (stereo not given)	105.5	x	98.4	90.7
Cc1ccccc1NC(=O)Cn1nnc(-c2ccc(CN3CCC(C)CC3)cc2)n1	102.3	-16.3	111.4	89.7
CC(C)N(C(=O)CSc1nnc(NC(=O)c2ccco2)s1)C(C)C	104.1	3.7	90.4	74.6
O=C(Cc1csc(NC(=O)Nc2ccccc2)n1)Nc1ccc(Cl)cc1	107.7	-7.0	x	x
Cc1cccc(-n2ncc(C(=O)Nc3ccc4c(c3)OCO4)c2C2CCN(C(=O)OC(C)(C)C)CC2)c1	105.6	x	78.7	94.5
Cc1cccc(N(C)Cc2nnc(-c3cccc(Br)c3)o2)c1	104.6	x	109.6	89.6
Cc1cccc(CCNC(=O)CCc2c(C)nc3c(-c4ccc(F)cc4)c(C)nn3c2C)c1	99.6	-1.8	109.7	91.6
O=C(OCc1ccccc1)Oc1cncc(C(=O)ON2C(=O)CCC2=O)c1	129.2	-13.0	104.1	88.9
COc1cccc(/C=C/c2nc(C#N)c(N3CCC(C(N)=O)CC3)o2)c1	102.5	-70.9	122.4	72.1
COC(=O)c1ccc(COc2c(-c3ccco3)oc3ccccc3c2=O)cc1	107.0	-10.3	122.5	98.5
O=C1C=CC(=O)C(c2ccc(C(=O)O)cc2)=C1	69.8*	-7.6	69.3	51.7
Cn1c(=O)c2ccc(C(=O)NC3CCCC3)cc2n2c(=O)n(CC(=O)NC3CCCC3)nc12	104.8	-20.4	x	x
CCOC(=O)c1ccc(N2C(=O)c3n[nH]c(-c4cccs4)c3C2c2ccc(CC)cc2)cc1 (stereo not given)	104.1	11.5	97.5	90.1
CC(Sc1nnc(CN(c2ccc(F)cc2)S(C)(=O)=O)n1C)C(=O)Nc1nccs1 (stereo not given)	106.4	-8.5	x	x
Cc1cc(=O)n2nc(N3CCC(C(=O)NCCCOC(C)C)CC3)sc2n1	102.1	-19.6	97.5	84.3
O=C(Cc1ccc(Cl)cc1)Oc1cccc(-n2cnnn2)c1	102.0	3.2	x	x
Cc1nc2c(ncn2-c2ccccc2)c(=O)n1NC(=O)CN1CCN(C)CC1	101.9	-9.0	94.5	87.2
CCCCCCCCCCCCCCSCC(=O)O	102.0	-31.3	x	x
CC(C)CCSc1nnc2n(-c3ccccc3)c(=O)c3c4c(sc3n12)CC(C)CC4 (stereo not given)	104.0	-34.7	110.2	84.3
CCC(=O)N1CCc2cc(Br)cc(S(=O)(=O)CCC(=O)NCCc3ccccc3Cl)c21	100.8	-4.7	94.8	88.7
Cc1cnc(C(=O)Nc2nn[nH]n2)cn1	103.7	24.3	97.6	98.2
O=C(CCS(=O)(=O)c1cc2c3c(c1)CCN3C(=O)CC2)Nc1ccccc1	104.2	-37.3	114.0	84.2
N#CCCN(C(=O)c1sc2ccccc2c1Cl)C1CCCCC1	100.3	x	95.0	77.7
COC(=O)c1ccccc1NC(=O)NCc1ccc2c(c1)CCN2C(=O)c1ccccc1	102.5	x	101.2	87.1
Cn1nc(C(=O)NCc2ccccc2Cl)c2c1-c1ccccc1S(=O)(=O)C2	105.1	-0.5	102.9	92.8
CCc1cccc(-n2c(=O)c3cccnc3n2CC(=O)Nc2c(C)cc(C)cc2C)c1	107.8	x	97.4	89.6
O=C(O)C1CCCN(c2ccccn2)C1 (stereo not given)	101.2	-6.2	96.5	97.9
N#Cc1cnc(SCC(=O)N(C2=CCCCC2)C2CC2)nc1N	x	10.7	115.0	96.2
Cc1nn(-c2ccccc2)c2sc(-c3noc(CNC(=O)Cc4ccccc4)n3)cc12	104.1	-8.1	x	x
CCOc1ccccc1CNC(=O)Cc1ccc(NC(=O)N2CCCCc3ccccc32)cc1	107.1	x	170.5	101.3
CN(C)c1ccc(C2/C(=C(/O)c3ccc(Cl)cc3)C(=O)C(=O)N2Cc2ccccc2)cc1 (stereo not given)	x	-14.9	88.0	93.0
NC(=O)NC(=O)c1nc2nonc2[nH]c1=O	44.4*	2.8	115.7	79.6
Cc1noc(N)c1C1(O)C(=O)N(CCC(C)C)c2ccccc21 (stereo not given)	x	0.2	98.2	104.5
O=C(CC1CCOCC1)Nc1ccc(I)cc1	x	-25.0	78.2	85.9
CCCN(C(=O)CC)c1nc(-c2ccc(C)cc2)cs1	105.9	-27.9	x	x
Cc1[nH]nc2c1C1(C(=O)Nc3ccc(Br)cc31)C(C#N)=C(N)O2 (stereo not given)	102.4	-11.6	x	x
COc1ccc(C2C=C(c3ccc(Br)cc3)Nc3nc(NS(C)(=O)=O)nn32)cc1 (stereo not given)	100.0	-49.6	x	x
O=C(Nc1ccc(Oc2ccccc2)cc1)c1cc2c(=O)n3ccccc3nc2s1	100.2	-29.1	x	x
Cc1ccc2nc(CCc3cccc(NC(=O)CN4C(=O)COc5ccccc54)c3)[nH]c2c1	106.1	-3.7	x	x

Among those listed so far, 11 contain an aryl thioether with sulfur outside any ring.
SMILES	GIV-Gai inh	HCMV NEC inh	Sa growth 42C	Sa growth 42C second temp
Cc1ccccc1OCC(=O)Nc1cc(Sc2ccccn2)cc(S(=O)(=O)c2ccccc2)c1	x	-14.4	102.8	88.5
CCSc1nc2c(c(=O)[nH]c(=O)n2C)n1CC	98.9	1.7	122.8	96.3
Nc1cc(=O)nc(SCCC(=O)O)n1-c1ccccc1	105.9	-29.0	84.5	87.7
N#Cc1cc2c(nc1SCC(=O)O)CCC2	x	-12.1	109.8	89.5
c1ccc(C(Sc2ccccn2)c2ccccc2)cc1	x	-1.8	132.4	92.9
COCCn1c(SCC(=O)Nc2cccc(C)c2C)nc2c(oc3ccccc32)c1=O	105.5	3.6	91.0	86.3
Cc1nc(C)c(-c2ccc(SCC(=O)Nc3ccc(Cl)c(Cl)c3)nn2)s1	100.3	x	123.3	80.9
CC(C)N(C(=O)CSc1nnc(NC(=O)c2ccco2)s1)C(C)C	104.1	3.7	90.4	74.6
CC(Sc1nnc(CN(c2ccc(F)cc2)S(C)(=O)=O)n1C)C(=O)Nc1nccs1 (stereo not given)	106.4	-8.5	x	x
CC(C)CCSc1nnc2n(-c3ccccc3)c(=O)c3c4c(sc3n12)CC(C)CC4 (stereo not given)	104.0	-34.7	110.2	84.3
N#Cc1cnc(SCC(=O)N(C2=CCCCC2)C2CC2)nc1N	x	10.7	115.0	96.2
